RN4220 kill = growth inhibition of S. aureus RN4220, primary screen, OD600; 16 h; inhibition, % (no concentration beside the values); 330,000 compounds, 0.33% hits;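 active = z-score of -3 or lower and OD600 up to 0.18 on both plates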;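 note: plate controls were untreated cells for no effect and reference antibiotic for full effect; stock transfer was 100 nL into about 80 µL; one replicate is shown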
ugtP null kill = growth inhibition of ugtP-null S. aureus, primary screen, RN4220 ugtP deletion, OD600. AID 1259309, 2017. 16 h; some inactives read as strong as hits. growth inhibition, % (no concentration beside the values). 330,000 compounds, 0.54% hits;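 active = z-score under -3 and OD600 up to 0.15 on both plates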;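 note: plate controls were untreated wells for no effect and antibiotic for full effect; wells of about 80 µL received 100 nL stock; the first replicate is given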
BJeLR viability = MLPCN primary cell-based screen for lethality selective to Ras in HRASV12 cells. BJeLR (HRASV12) viability, CellTiter-Glo ATP luminescence, 48 h; reference of the scale not given here. inhibition, % (no concentration beside the values). 300,000 compounds, 0.17% hits. AID 1554, 2009;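 active = replicate mean above 50%; inconclusive = above 50% but judged a plate artefact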;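 note: 50 nL library stock added to about 25 µL; numbers are from one replicate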
Mtb hypoxia rep = PubChem AID 1159583; M. tuberculosis hypoxia-regulated fluorescent reporter, fluorescence; fluorescence inhibition, % (test concentration not listed); 300,000 compounds, 0.1% hits;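 active = 35 to 45% if threefold the growth effect, above 45% if 1.5-fold the growth effect; inactive = the rest, general growth blockers included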;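 note: wells of about 50 µL received 100 nL stock; 0% = vehicle wells and 100% = reference inhibitor wells; whole bacteria with a GFP reporter of the hypoxia response; strong numbers were not always called active; many hits fall short of the cut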
Autofluor counter = counter-screen for toxin protease inhibitors: compound fluorescence. fluorescence intensity (test concentration not listed). compound autofluorescence counterscreen, microsphere flow cytometry; hits give high values. AID 624483. 360,000 compounds, 3.1% hits;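 active = at least 3 SD above the mean of all compounds, about 16000 in these data; inconclusive = too few beads counted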;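 note: 100 nL of 1 mM stock went into each well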
PrP UTR inh = inhibition of PrP 5' UTR reporter expression | 340,000 compounds, 0.35% hits | cell-based PrP 5' UTR mRNA reporter, plate reader | inhibition, % (no concentration beside the values);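 active = every replicate at 50% or more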;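 note: 0 = median of the neutral control wells; tested in H4 reporter cells; numbers are from one replicate; inactives centre near -14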
Mtb hypoxia rep growth = further read-out of Mtb hypoxia rep, marked with its call; growth inhibition, %; measured here: M. tuberculosis growth (absorbance);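 0% = vehicle and 100% = reference antibiotic; read after six days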
Active calls of the source: *; ? = inconclusive; . = no result given.

structure	RN4220 kill	ugtP null kill	BJeLR viability	Mtb hypoxia rep	Mtb hypoxia rep growth	Autofluor counter	PrP UTR inh
COC(=O)c1scc(S(=O)(=O)C(C)C)c1NN=C(C#N)C(=O)c1ccc(Cl)cc1	29	20	.	-4	-1	.	.
Cc1ccc(NC(=O)CCC(=O)N/N=C/c2ccccc2O)cc1	.	.	-5	.	.	3781	7
Cc1csc(NC(=O)c2cc(=O)[nH]c3ccc(S(=O)(=O)N4CCOCC4)cc23)n1	2.6	1	2	4	-2	4432	-32
O=C1/C(=C/c2cccnc2)SC(=S)N1c1ccc(O)cc1	4.9	12	-3	-4	1	4474	-17
O=C1CSC(c2ccccc2[N+](=O)[O-])N1CCc1ccccc1 (stereo unspecified)	2.3	2	2	10	-3	2700	-12
O=C(Nc1nc2c(s1)CN(Cc1ccccc1)CC2)c1cccc(S(=O)(=O)N2CCc3ccccc32)c1	5.6	-13	-3	14	6	13649	-26
COc1ccc2c(c1OC)CN1CCc3cc4c(cc3C1C2O)OCO4 (stereo unspecified)	12	16	.	1	-7	.	.
O=P(OC1CCCCC1)(OC1CCCCC1)C(O)c1ccc(Cl)cc1Cl (stereo unspecified)	9.0	-23	-6	12	5	9572	-26
CS(=O)(=O)N(CC(=O)N1CCN(c2cccc(Cl)c2)CC1)c1cccc(F)c1	-1.1	2	2	.	.	4542	-6
O=C(Nc1ccncc1)c1ccccc1-c1ccccc1	7.5	1	3	5	3	4970	-30
CCc1c(C)nc(N)nc1N1N=C1SC(C(C)=O)C(C)=O	3.3	-4	5	-7	0	4292	0
COC(=O)c1ccccc1N(C)S(C)(=O)=O	6.8	0	4	8	8	2862	-20
CCOC(=O)C1CCN(c2c(NCCCN3CCCCC3)c(=O)c2=O)CC1	2.0	3	-10	-8	4	3917	-4
O=C1NCC(COc2ccc([N+](=O)[O-])cc2)O1 (stereo unspecified)	2.5	14	14	-6	-8	2934	-9
Cc1ccc(NC(=O)CC2S/C(=N/c3nccs3)N(C)C2=O)c(C)c1 (stereo unspecified)	.	.	-7	.	.	3065	-12
CNC(=S)NN=Cc1cc(Br)c(OCc2ccncc2)c(OC)c1	35	9	.	-1	2	.	.
COc1ccc(/C=C2\SC(=O)N(CCC(=O)Nc3ccc(S(=O)(=O)Nc4nccs4)cc3)C2=O)cc1	10	-15	0	9	7	2153	-13
CCN1CCN(S(=O)(=O)c2cc(OCC(=O)NC3CCCCC3)c(C)cc2Cl)CC1	6.0	13	1	13	5	3308	-10
COc1ccccc1C(=O)NC(CCSC)C(=O)OC(C)C(N)=O (stereo unspecified)	5.8	9	31	5	5	3082	40
CCc1cccc(C)c1NC(=O)CSc1nnc(-c2ccco2)n1N	0.2	-2	4	-5	-3	23827*	10
O=C(CSc1nccc(=O)[nH]1)Nc1ccc(F)c(Cl)c1	-1.2	17	3	6	5	24003*	-12
COCCOC(=O)c1c(NC(=O)COC(=O)Cc2cccc(OC)c2)sc(C(N)=O)c1C	0.4	0	6	-4	2	5730	-2
Cc1cccc(NC(=O)C2CCN(S(=O)(=O)c3c(C)nn(C)c3C)CC2)n1	2.7	-3	2	.	.	4411	-10
CSc1cccc(NC(=O)CCCOc2ccc(Cl)cc2C)c1	-11	-37	-6	8	3	2463	-7
COc1ccc(N2C(=O)CSC23CCCCC3)cc1	7.3	0	-2	1	3	21829*	8
Cc1cc(NC(=O)CSc2n[nH]c(CC(C)C)n2)no1	5.4	7	9	6	6	?	-16
O=C1c2ccccc2C(O)N1Cc1ccco1 (stereo unspecified)	-7.5	-3	-10	7	6	5469	-17
CC(=O)c1sc2nc(-c3cccs3)cc(C(F)(F)F)c2c1N	0.7	-15	2	0	1	4089	-14
O=C(CSc1nnnn1-c1ccc(Cl)cc1)N1CCc2ccccc2C1	6.9	-11	6	8	9	21981*	-13
Cc1ccc(C(C2=C(O)CC(C)(C)CC2=O)C2C(=O)CC(C)(C)CC2=O)o1 (stereo unspecified)	1.5	-1	-2	.	.	2895	-5
O=C(O)c1ccc(S(=O)(=O)c2ccc3c(c2)C(=O)N(Cc2ccco2)C3=O)cc1	3.4	8	-9	6	5	9546	-23
CCN1C(=O)C2C(c3ccc(OC)cc3)N3C(=O)CN(CCOC)C(=O)[C@@]3(Cc3ccccc3)C2C1=O (stereo partly specified)	2.4	3	.	-1	5	.	.
Cc1ccc(CSc2ccc3nnc(-c4cccnc4)n3n2)cc1	2.5	8	-12	6	0	8625	-4
Cc1cc(C=NNc2ccc([N+](=O)[O-])cn2)c(C)n1-c1ccc(C(=O)O)cc1	-5.0	-4	.	-6	5	.	.
COc1cccc(C(C(=O)NC2CCCCC2)N(CCN2CCOCC2)C(=O)C2COc3ccccc3O2)c1 (stereo unspecified)	5.3	10	8	11	12	3166	-13
COc1ccc(C2CC(c3ccccc3)=NN2C(=O)CSc2nnnn2-c2cccc(C)c2)cc1 (stereo unspecified)	2.0	12	-3	10	5	4829	-8
CN(C)CCNS(=O)(=O)c1ccc2c3c(cccc13)C(=O)N2	3.3	3	-2	5	2	3832	-12
O=C(NC(=S)Nc1cc(S(=O)(=O)N2CCOCC2)ccc1N1CCOCC1)C1CCCC1	4.2	4	-16	-6	2	.	.
CSc1c(-c2ccccn2)c(N)nn1C(=O)C1CCC1	-0.2	42	0	-1	-11	4831	-3
COc1ccccc1CCNC(=O)c1cccc(S(=O)(=O)N2CCc3ccccc3C2)c1	4.7	0	.	0	0	6764	-5
CC(C)(C)OC(=O)N[C@H](Cc1ccccc1)C(=O)N1CCC[C@@H]1C(=O)O	6.4	16	2	-9	4	3700	-14
C=CCNC(=O)C1CCC(C(=O)NCC=C)CC1 (stereo unspecified)	4.2	14	-4	-2	1	5008	-8
CCOC(=O)c1c(C2CC2)csc1NC(C)=O	8.2	-7	-4	-82	-11	6516	1
CCC(=O)Nc1cccc(-c2nnc(-c3ccccc3)o2)c1	1.8	-2	1	4	15	3992	-52
COc1ccc(/C=C/c2c(-c3ccc(OC)cc3)oc3ccc(-c4ccc(OC)cc4)cc23)cc1	.	.	1	.	.	3899	5
CCCCOCCCNC(=O)NC(C(=O)OC)C(C)C (stereo unspecified)	-2.7	-7	.	-1	4	.	.
CC(C)CNC(=O)c1ccccc1NC(=O)c1ccccc1N(C)S(C)(=O)=O	5.1	6	1	.	.	4535	-11
COc1ccc(OC)c(/C=C(\NC(=O)c2ccccc2)C(=O)NN=Cc2ccc(C)s2)c1	3.0	-6	.	6	6	.	.
COc1ccc(NC(=O)CN(c2cc(C)cc(C)c2)S(=O)(=O)c2c(C)noc2C)cc1	7.3	-9	4	.	.	5586	-9
COc1ccc(N2CCN(C(=O)c3ccc(SC)cc3OC)CC2)cc1	2.4	4	-1	9	-1	2038	-2

Some of these compounds in order of SMILES length, largest number first.
structure	RN4220 kill	ugtP null kill	BJeLR viability	Mtb hypoxia rep	Mtb hypoxia rep growth	Autofluor counter	PrP UTR inh
COc1ccc(NC(=O)CN(c2cc(C)cc(C)c2)S(=O)(=O)c2c(C)noc2C)cc1	7.3	-9	4	.	.	5586	-9
COc1ccccc1CCNC(=O)c1cccc(S(=O)(=O)N2CCc3ccccc3C2)c1	4.7	0	.	0	0	6764	-5
CC(C)CNC(=O)c1ccccc1NC(=O)c1ccccc1N(C)S(C)(=O)=O	5.1	6	1	.	.	4535	-11
COc1ccc(N2CCN(C(=O)c3ccc(SC)cc3OC)CC2)cc1	2.4	4	-1	9	-1	2038	-2
CC(=O)c1sc2nc(-c3cccs3)cc(C(F)(F)F)c2c1N	0.7	-15	2	0	1	4089	-14
CSc1c(-c2ccccn2)c(N)nn1C(=O)C1CCC1	-0.2	42	0	-1	-11	4831	-3

(next part)
structure	RN4220 kill	ugtP null kill	BJeLR viability	Mtb hypoxia rep	Mtb hypoxia rep growth	Autofluor counter	PrP UTR inh
COc1ccc(CCNC(=O)CC2SC(=NCc3ccccc3OC)NC2=O)cc1 (stereo unspecified)	12	4	-4	3	12	3581	-8
COc1ccc(CNC(=O)C2CCCN(C(=O)Nc3ccc(OC)cc3)C2)cc1 (stereo unspecified)	1.1	1	5	-2	-1	3763	-7
COc1ccc(/C=C(\NC(=O)c2ccc(C)cc2)C(=O)NCCCn2ccnc2)cc1OC	0.6	0	4	-5	0	6289	-43
COc1ccccc1NC(=O)CCSc1nc(C)cc(C)n1	6.7	5	-2	-6	7	4945	-24
Cc1cc(=O)oc2c(C)c(OCC(=O)c3ccccc3)ccc12	4.3	8	2	-6	-4	3186	-12
O=C(O)c1ccc(/C=C2\COc3ccccc3C2=O)cc1	1.0	3	-2	0	2	3976	-18
COC(=O)c1sccc1NC(=S)Nc1ccc(C)cc1	4.7	10	-17	0	2	5919	-7
O=C(CSc1nc2ccccc2s1)NC1CCCc2ccccc21 (stereo unspecified)	5.4	-2	1	-4	5	2389	5
Cc1c(OCC(=O)N[C@@H](CSCc2ccccc2)C(=O)O)ccc2c3c(c(=O)oc12)CCC3	2.5	11	3	.	.	4835	-38
CCOc1ccc(NC(=O)Nc2cnccn2)cc1	-1.4	-4	6	4	10	2967	-33
Cc1noc(C)c1C(=O)N1CCC(CO)(Cc2ccccc2)CC1	3.3	10	9	7	-1	4400	-21
CC(C)Cn1c(NCCO)nc2ccccc21	5.0	-12	6	-1	6	19740*	-24
CN(C)c1ccc2c3c(ccc(N(C)C)c13)COC2	5.5	4	1	0	4	4885	-12
COC(=O)c1ccccc1NC(=O)CSc1nnnn1CC(=O)O	4.6	8	-7	17	2	5949	-15
CCn1cc(C=NNC(=O)C2(C)CC2(Cl)Cl)c(C)n1 (stereo unspecified)	2.6	5	.	-4	2	.	.
CC(C)Cc1nc2oc3c(N4CCN(CCO)CC4)ncnc3c2c2c1CCCC2	5.9	-9	-17	20	28	10925	5
CSc1nc(C)c(Cc2ccccc2)c(=O)[nH]1	1.8	2	-4	3	-5	5232	-35
O=C(CCc1ccccc1)Nc1ccc(S(=O)(=O)NC2=NCCCCC2)cc1	3.6	10	.	8	0	.	.
COc1ccc(-n2nc(C(=O)NCC(=O)N3CCN(c4ccccn4)CC3)c3ccccc3c2=O)cc1OC	1.7	2	7	-2	-3	3346	-30
CCC(C)NCc1ccc(C(=O)OC)o1 (stereo unspecified)	4.9	5	-9	6	-6	3935	-15
CC1CN(S(=O)(=O)c2ccc(C(=O)N3CCc4ccccc43)cc2)CC(C)O1 (stereo unspecified)	1.7	5	.	0	-4	?	-12
Cc1ccc(CNC(=O)C(Cc2ccccc2)NS(=O)(=O)c2ccc(Br)s2)cc1 (stereo unspecified)	0.8	-27	-21	4	4	2756	-6
CCc1ccc(CNC(=O)C2CCC(=O)N(CCc3ccc(Cl)cc3)C2)nc1 (stereo unspecified)	-1.5	8	2	9	8	5009	-12
Cc1sc2ncnc(SCC(=O)N3c4ccccc4Sc4ccc(Cl)cc43)c2c1C	3.6	5	-8	-6	8	2485	-18
O=C(Cn1cc(SCc2cccc(Cl)c2)c2ccccc21)N1CCOCC1	12	0	10	9	9	9094	-30
CCC(=O)c1ccc(N2CCN(C(=O)Cc3ccccc3)CC2)c(F)c1	4.0	0	-7	.	.	4395	-4
CSc1ncc(Cl)c(C(=O)Nc2ccccc2Br)n1	5.8	5	1	10	12	3959	-16
CCc1ccc(-c2nc(NC(=O)c3ccc(OCC(=O)Nc4ccc(F)cc4)c(OC)c3)sc2C)cc1	1.3	2	-5	6	0	2564	-17
COc1ccc2c(c1)CCCC2=O	1.7	2	.	10	7	3441	-21
CCN1CCc2nc(N)oc2CC1	9.1	1	.	9	5	5461	-35
COc1cc2[nH]c(=O)n(CCCCCC(=O)NCCCN3CCCC3=O)c(=O)c2cc1OC	0.3	3	-1	3	-1	16148*	7
COc1cccc(-c2noc(C(C)n3nc(C)c([N+](=O)[O-])c3C)n2)c1 (stereo unspecified)	5.2	6	-5	1	8	2494	-21
Cc1ccc(OC(=O)c2cccc(C(=O)Oc3ccc(C)cc3)n2)cc1	1.2	1	2	-5	-7	3136	2

Compound activity as filed in PubChem.
